# nsP2pro inh: inhibitors of chikungunya virus nsP2 protease. Q8JUX6. FRET peptide cleavage, nsP2pro, fluorescence 1 h. actives 1.1% (n = 31,000). AID 1964107. Potency, µM (doses to about 24.9 µM), inactives show at the highest dose activity change, negative = inhibition, hits mostly inhibitors; active means well fitted inhibition curve with a large enough effect; inconclusive means small, poorly fitted or top-dose-only effect; inactive means no such curve, though single readings can be large or run the other way; note: nearly all actives have a fitted effect of over 60% in size; a reference inhibitor and vehicle were the controls
# Target sequence (Q8JUX6 whole entry, looked up): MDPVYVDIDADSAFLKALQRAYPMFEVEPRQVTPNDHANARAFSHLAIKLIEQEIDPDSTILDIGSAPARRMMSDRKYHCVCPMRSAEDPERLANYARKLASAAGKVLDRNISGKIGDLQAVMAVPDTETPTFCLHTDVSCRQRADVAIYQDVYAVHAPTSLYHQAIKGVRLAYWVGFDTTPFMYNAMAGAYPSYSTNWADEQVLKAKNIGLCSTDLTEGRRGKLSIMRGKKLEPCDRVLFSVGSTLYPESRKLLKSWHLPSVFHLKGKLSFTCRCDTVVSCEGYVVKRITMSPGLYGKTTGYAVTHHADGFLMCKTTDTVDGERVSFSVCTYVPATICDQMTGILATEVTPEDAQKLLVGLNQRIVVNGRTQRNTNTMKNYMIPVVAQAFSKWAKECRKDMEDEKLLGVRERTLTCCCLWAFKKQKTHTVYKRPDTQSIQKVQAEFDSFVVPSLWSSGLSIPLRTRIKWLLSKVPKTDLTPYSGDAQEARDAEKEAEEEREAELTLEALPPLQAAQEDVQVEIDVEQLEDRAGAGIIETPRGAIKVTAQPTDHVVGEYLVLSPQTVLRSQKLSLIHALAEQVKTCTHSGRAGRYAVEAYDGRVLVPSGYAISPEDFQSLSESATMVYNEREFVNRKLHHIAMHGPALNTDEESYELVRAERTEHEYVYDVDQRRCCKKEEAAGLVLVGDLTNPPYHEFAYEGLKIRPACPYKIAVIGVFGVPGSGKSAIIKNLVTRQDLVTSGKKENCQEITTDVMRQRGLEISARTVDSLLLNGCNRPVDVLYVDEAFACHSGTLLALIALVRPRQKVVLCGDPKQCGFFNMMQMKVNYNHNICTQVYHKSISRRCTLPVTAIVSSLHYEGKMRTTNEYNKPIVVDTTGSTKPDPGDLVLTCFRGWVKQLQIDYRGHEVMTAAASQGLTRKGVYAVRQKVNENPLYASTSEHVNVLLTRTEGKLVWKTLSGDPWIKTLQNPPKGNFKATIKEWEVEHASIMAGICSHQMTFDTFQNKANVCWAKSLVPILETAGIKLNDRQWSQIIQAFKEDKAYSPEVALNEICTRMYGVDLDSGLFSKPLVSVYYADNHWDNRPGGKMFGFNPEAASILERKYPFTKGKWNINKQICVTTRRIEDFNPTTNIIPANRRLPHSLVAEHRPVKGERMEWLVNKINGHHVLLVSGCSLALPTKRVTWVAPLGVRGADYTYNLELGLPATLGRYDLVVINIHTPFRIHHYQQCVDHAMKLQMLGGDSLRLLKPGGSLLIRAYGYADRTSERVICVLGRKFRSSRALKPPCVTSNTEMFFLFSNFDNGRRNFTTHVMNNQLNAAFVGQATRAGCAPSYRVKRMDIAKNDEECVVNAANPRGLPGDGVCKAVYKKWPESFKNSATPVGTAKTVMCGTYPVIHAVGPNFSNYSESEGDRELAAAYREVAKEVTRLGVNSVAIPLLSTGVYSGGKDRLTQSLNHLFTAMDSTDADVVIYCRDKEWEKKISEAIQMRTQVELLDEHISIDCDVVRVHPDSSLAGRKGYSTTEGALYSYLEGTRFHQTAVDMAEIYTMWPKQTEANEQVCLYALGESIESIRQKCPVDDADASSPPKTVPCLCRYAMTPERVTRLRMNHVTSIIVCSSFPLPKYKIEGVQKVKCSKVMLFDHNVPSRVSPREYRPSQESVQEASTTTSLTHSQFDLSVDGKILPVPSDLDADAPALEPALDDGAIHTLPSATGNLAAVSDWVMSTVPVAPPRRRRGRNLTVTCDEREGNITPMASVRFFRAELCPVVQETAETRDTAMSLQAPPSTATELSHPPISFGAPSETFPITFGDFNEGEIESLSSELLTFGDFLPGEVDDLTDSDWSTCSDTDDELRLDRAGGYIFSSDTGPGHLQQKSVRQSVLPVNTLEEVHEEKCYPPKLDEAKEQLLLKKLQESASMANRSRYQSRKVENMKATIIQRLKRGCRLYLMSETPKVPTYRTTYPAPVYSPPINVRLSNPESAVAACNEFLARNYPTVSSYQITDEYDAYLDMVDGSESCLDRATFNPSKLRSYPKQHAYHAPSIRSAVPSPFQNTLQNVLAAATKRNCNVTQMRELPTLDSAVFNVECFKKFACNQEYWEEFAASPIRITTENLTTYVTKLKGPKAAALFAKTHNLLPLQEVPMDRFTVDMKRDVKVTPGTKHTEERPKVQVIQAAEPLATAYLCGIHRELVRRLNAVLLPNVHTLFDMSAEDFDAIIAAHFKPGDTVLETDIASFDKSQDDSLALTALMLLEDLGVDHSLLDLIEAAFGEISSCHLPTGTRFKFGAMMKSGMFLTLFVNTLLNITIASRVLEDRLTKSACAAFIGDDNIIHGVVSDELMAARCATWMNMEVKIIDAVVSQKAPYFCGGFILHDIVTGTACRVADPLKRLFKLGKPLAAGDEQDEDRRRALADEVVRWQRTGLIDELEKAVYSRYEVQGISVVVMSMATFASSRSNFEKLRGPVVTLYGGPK
# An asterisk follows results filed as active; i = inactive; ? = inconclusive; & = joins results of further samples; [ ] = remark or other dose. % is set by controls: 0 for no effect and ±100 for the full control effect; potency is the fitted concentration of half-maximal effect. This is a subset; the hit share may differ from the screen's.
Compound | nsP2pro inh
COc1ccc(Br)cc1CNC(=O)c1cnc2sc(N3CCCCCC3)nn2c1=O | -12.8%
C=C1C(=O)O[C@@H]2C[C@@H](C)[C@]34C[C@]5(C(=O)O[C@H]6CC(C)=C([C@H](C)CCCO)[C@H](OC(=O)C(C)CC)[C@H]65)[C@@H](C(C)=C3C[C@@H]12)[C@H]4OC(C)=O (stereo partly drawn) | 13.1%[10 µM]
CC(=O)Nc1ccccc1-c1nc2ccccc2n(Cc2cccc(Br)c2)c1=O | -10.5%
O=C(CSc1nc2c([nH]c3ccccc32)c(=O)n1-c1cccc(C(F)(F)F)c1)N1CCCC1 | -20.3%
CCCNC(=O)C1CCc2ncc(-c3ccc(OC)cc3)n2C1 (stereo not drawn) | i
Cc1cc(Nc2cc(C)c(C#N)c(NC(C)CCCC(C)(C)O)n2)n[nH]1 (stereo not drawn) | 16.2%
FC(F)(F)c1cc(C(F)(F)F)c2ccc3nc(-c4nnco4)cn3c2n1 | 0.5%
Cc1ccc2c(=O)cc(C(=O)Nc3sc4c(c3C(=O)NCc3cccnc3)CCCC4)oc2c1 | -14.3%

# Going on with the list:
Compound | nsP2pro inh
NCCc1ccc(O)c(O)c1 | -17.8%
CCOC(=O)c1ccc(-c2ccc(/C=C(\C#N)C(=O)Nc3ccc(C)cc3)o2)cc1 | -19.9%
Cc1nc(NCc2ccccc2)c2nc(-c3ccccc3)n(CCCN3CCOCC3)c2n1 | 4.0%
Cc1c(Cl)cc([S+](=O)([O-])O)cc1NC(=O)NC[C@H](N)C(=O)O | -4.6%
CC1=CC2(O)/C=C/C(C)(O)CC(O)/C=C/C(=O)OC23C(=O)NC(CC(C)C)C3C1C (stereo not drawn) | -16.1%[10 µM]
COc1ccc(-c2cc(N3CCCN(C(=O)CCCc4ccccc4)CC3)n[nH]2)cc1 | i
CN(Cc1ccccc1)Cc1cc(C[C@@H]2C[C@H](NC(=O)C3CC3)C2(C)C)no1 | -15.3%[39.2 µM]
O=[N+]([O-])c1ccc(S(=O)(=O)c2ccc(Cl)cc2)nc1 | 0.316µM*

# Next section:
Compound | nsP2pro inh
CN(C1CCCCC1)S(=O)(=O)C1CCS(=O)(=O)C1 (stereo not drawn) | 0.3%
O=c1c2c(CO)c(-c3ccccc3)nn2ccn1Cc1ccccc1 | -5.0%
CCCS(=O)(=O)N1C[C@@H]2C[C@H](C1)c1ccc(-c3ccccc3C)c(=O)n1C2 | ?
CCn1ncc(CN2CC[C@@H]3CN(S(C)(=O)=O)[C@@H]3C2)c1C | -3.1%
Cc1cc(-c2ccc(C)c(S(=O)(=O)N3c4ccccc4CC3C)c2)on1 (stereo not drawn) | -5.7%
CC(=O)c1c(C)oc2ccc(N(C(=O)Oc3ccccc3)S(=O)(=O)c3ccc(C(C)(C)C)cc3)cc12 | -7.1%
O=C(Cc1csc2ccccc12)NCc1cccc(Br)c1 | -10.3%
Cc1ccccc1CN1C(=O)c2ccccc2S(=O)c2ccc(C(=O)NCc3ccc4c(c3)OCO4)cc21 (stereo not drawn) | -18.6%

# Next compounds follow:
Compound | nsP2pro inh
Cc1ccc(Cl)cc1NC(=O)/C(C#N)=C/c1c(C)n(Cc2ccccc2)c2ccccc12 | -13.2%
NCCCCN(Cc1nc2ccccc2[nH]1)[C@H]1CCCc2cccnc21 | 130.3%[activator]
COc1ccc(OC2CN(CC3CC3)C2)cc1 | 3.0%[39.2 µM]
COCC1CCN(c2ccc(-c3nc(-c4ccccc4C)no3)cn2)C1 (stereo not drawn) | 4.2%
COc1ccc(N2CCN(Cc3nc4c(c(=O)[nH]c(=O)n4C)n3Cc3ccccc3C)CC2)cc1 | -13.9%
Cc1cccc(Oc2nc3c(c(=O)n(C)c(=O)n3C)n2Cc2ccccc2)c1C | -28.0%
Cc1ccc(Nc2nc(C#N)nc(NC3CCCC3)n2)cc1 | ?
CCc1nc2c(cnn2-c2ccc(C)cc2)c(=O)n1Cc1ccccc1 | -19.0%

# Next part
Compound | nsP2pro inh
CC(=O)c1ccc(NC(=O)COc2ccccc2-c2nc(-c3cccc(C)c3)no2)cc1 | -12.6%
CCOc1ccc(OCC(=O)Nc2ccc(S(=O)(=O)Nc3cc(C)on3)cc2)cc1 | 0.0%
O=C(Cc1ccccc1)NCc1nnc2n1C(C(=O)O)CC2 (stereo not drawn) | -27.2%
COc1ccccc1NC(=O)Nc1cccc(-c2nnc3n2CCCC3)c1 | 2.1%
Cc1ccc(-c2cc(C(=O)Nc3ccccc3C)c3ccccc3n2)cc1C | 2.0%
CCOc1ccc(NC(=O)N2CCC(n3c(C)nc4cccnc43)CC2)cc1 | -19.4%
O=C(Cn1cccc1-c1nc(-c2ccc(F)cc2)no1)NCc1ccccc1Cl | i
CCN(Cc1ccccc1)C(=O)CCS(=O)(=O)c1cc(Br)cc2c1N(C(=O)C1CC1)CC2 | -13.8%

# Later entries.
Compound | nsP2pro inh
CCc1nn(CC(=O)NCc2cccc(OC)c2OC)c(=O)c2cc3occc3n12 | -28.7%
Cc1ccc(CNC(=O)CCCn2c(=O)c3sccc3n(CC(=O)Nc3c(C)cccc3C)c2=O)cc1 | -10.0%
O=C1Nc2ccccc2/C1=C\c1ccc(O)c(F)c1 | i
N#Cc1ccc(CN2C[C@@H](CO)[C@H](NC(=O)c3ccccc3)C2)cc1 | -12.9%
Cc1ccccc1Nc1c(-c2cccnc2)nc2cccc(C)n12 | -11.7%
O=C(NCc1ccccc1)c1cnc2n1CCN(Cc1ccccc1)CC2 | i
CCC(=O)NC(c1cccs1)c1cc(Cl)c2cccnc2c1O (stereo not drawn) | i
COc1ccc(-c2nc(C)nc3c2CCC3)c2ccc(C)nc12 | 0.1%

# Fetched by compound from the entries so far:
Compound | nsP2pro inh
CCC(=O)NC(c1cccs1)c1cc(Cl)c2cccnc2c1O (stereo not drawn) | i
Cc1ccc(CNC(=O)CCCn2c(=O)c3sccc3n(CC(=O)Nc3c(C)cccc3C)c2=O)cc1 | -10.0%
N#Cc1ccc(CN2C[C@@H](CO)[C@H](NC(=O)c3ccccc3)C2)cc1 | -12.9%
CCc1nn(CC(=O)NCc2cccc(OC)c2OC)c(=O)c2cc3occc3n12 | -28.7%
COc1ccc(-c2nc(C)nc3c2CCC3)c2ccc(C)nc12 | 0.1%
O=C1Nc2ccccc2/C1=C\c1ccc(O)c(F)c1 | i
O=C(NCc1ccccc1)c1cnc2n1CCN(Cc1ccccc1)CC2 | i

# (cont.)
Compound | nsP2pro inh
Cn1c(=O)c2c(SCC(=O)N3CCc4ccccc43)nc(-c3cccc(F)c3)nc2n(C)c1=O | -20.0%
CCOc1ccccc1Nc1ccc2cc(S(=O)(=O)N3CCCCC3)ccc2n1 | ?
Cc1cccc(C(=O)N2CCCCCNC(=O)CC2c2ccccc2)c1 (stereo not drawn) | -7.7%
CC[C@H](C)[C@@H]1NC(=O)[C@H](Cc2ccc(OC)cc2)NC(=O)CCCSC[C@@H](C(=O)N2CCC[C@H]2C(=O)N[C@@H](CC(C)C)C(=O)NCC(N)=O)NC(=O)[C@H](CC(N)=O)NC(=O)[C@H](CCC(N)=O)NC1=O | 1.9%
C[C@@H]1O[C@@H](O[C@H]2[C@H](O)[C@@H](C(=O)O)O[C@@H](O[C@H]3CC[C@@]4(C)C(CC[C@]5(C)C4CC=C4C6CC(C)(C)CC[C@]6(C(=O)O)CC[C@]45C)C3(C)C)[C@@H]2O[C@@H]2OC[C@@H](O)[C@H](O)[C@H]2O)[C@H](O)[C@H](O)[C@H]1O (stereo partly drawn) | 12.1%[5.1 µM]
Cc1cc(=O)n(C(C)C(=O)N2CCCc3ccccc32)c2c1c(C)nn2-c1ccccc1 (stereo not drawn) | -8.7%
COC(=O)C1=CO[C@@H](O[C@@H]2O[C@H](CO)[C@@H](O)[C@H](O)[C@H]2O)[C@@H]2C(CO)=CC[C@H]12 | -11.0%&-9.5%
O=C1CC(C(=O)Nc2cccc(Cl)c2)n2ncnc2N1 (stereo not drawn) | -3.6%

# The list goes on.
Compound | nsP2pro inh
CCC(=O)NC(C)c1cc(Cl)c2cccnc2c1O (stereo not drawn) | i
COc1c2c(c(C)c3c1C(=O)OC3)OC1(C)CC(O)C34OC(OC)(CC(O)C3(C)C1C2)OC4(C)C (stereo not drawn) | ?
CCCC(=O)Nc1cccc(NC(=O)c2ccccc2Br)c1 | -17.8%&-5.1%
CN(C)c1ccc(NC(=O)CN2CCN(CC(=O)Nc3ccc(Br)cc3)CC2)cc1 | -18.5%
C=C[C@]1(C)C=C2CCC3C(C)(CCC[C@@]3(C)C(=O)O)C2CC1 (stereo partly drawn) | ?
COc1ccc(N2CCN(C(=O)c3cnc(SC)nc3C)CC2)cc1 | -32.0%
Nc1ncnc2c1ncn2[C@@H]1O[C@H](CSCC[C@H](N)C(=O)O)[C@@H](O)[C@H]1O | -17.7%
CCN(CC)CCCn1c(-c2ccccc2)nc2c(NCc3ccccc3)nc(C)nc21 | i

# (more compounds)
Compound | nsP2pro inh
Cc1ccc(C2=NN(CC(=O)NCCc3ccccc3)C(=O)C2)cc1 | 0.5%
CC(C)Cn1cc(NC(=O)N2CCN(c3cccc(C(F)(F)F)c3)CC2)c2ccccc2c1=O | -20.2%
CCOc1ccc(C2CC(=O)Nc3nc(SCc4ccccc4C)[nH]c(=O)c32)cc1OC (stereo not drawn) | -18.2%
CCOc1ccc(CNC(=O)C2CCN(S(=O)(=O)c3c(C)noc3/C=C/c3ccc(C)cc3)CC2)cc1OC | -25.8%
CCOC(=O)c1cccc(NC(=O)c2ncoc2-c2ccco2)c1 | -5.3%
COC(=O)C(C)C1CCC2(C)C(=O)C=CC(C)(O)C2C1O (stereo not drawn) | 12.4%
Fc1ccccc1CNCc1ccc(-c2ccnc3[nH]ccc23)cc1 | 73.2%[activator]
CC1CCN(c2nc3ccc(C(=O)NCc4ccc(Cl)cc4)cc3s2)CC1 | -18.6%

# (listing goes on)
Compound | nsP2pro inh
COc1cc(C)c(Cc2cnc(N)nc2N)cc1OC | 14.6%
CCOc1ccc(NC(=O)c2nc(S(=O)(=O)Cc3ccccc3)ncc2Cl)cc1 | 144.5%[activator]
Cc1ccoc1C(=O)N1CCc2c(nc(-c3cccnc3)nc2N(C)C)C1 | -0.3%
CCOC(=O)COc1ccc(F)cc1C(=O)c1ccn2nc(-c3ccc(Cl)cc3)cc2n1 | -11.1%
COc1ccc(CCCc2nnc(SCC(=O)Nc3ccc(F)cc3)o2)cc1C | ?
CC1=C(C(=O)OCc2ccccc2)C(c2ccc(-c3ccccc3)cc2)NC(=O)N1CCCCCC(=O)O (stereo not drawn) | 290.9%[activator]
Cc1ccc(-c2cc(C(=O)N3CCN(S(=O)(=O)c4ccc(Br)s4)CC3)[nH]n2)cc1C | -20.4%
O=c1c(-c2ccc(O)cc2)coc2cc(O[C@@H]3O[C@H](CO)[C@@H](O)[C@H](O)[C@H]3O)ccc12 | -12.4%

# More results follow.
Compound | nsP2pro inh
COC(=O)c1ccc(NC(=O)CCOc2ccccc2)cc1 | -4.0%
CC(C)CCNC(=O)CSc1nc2ccsc2c(=O)n1Cc1ccccc1Cl | -11.6%
O=S(=O)(c1ccc2c(c1)OCCO2)C1CCN(S(=O)(=O)c2c(F)cccc2F)CC1 | 3.6%
CCCOc1ccc(C2CC(=O)Nc3c2c(C)nn3-c2nncc(-c3cccc(OC)c3)n2)cc1OC (stereo not drawn) | -8.0%
COc1cc(C(=O)Nc2ccc3nc(SCc4ccc(C)cc4)sc3c2)cc(OC)c1OC | ?
CCOC(=O)c1ccc2c(c1)N(Cc1cccc([N+](=O)[O-])c1)C(=O)c1ccccc1S2 | -12.8%
CN(C(=O)CSc1nc(C2CCCC2)nc2c1c(=O)n(C)c(=O)n2C)c1ccccc1 | -14.4%
Cc1sc(C2C(C#N)=C(N)N(c3ccc(Cl)cc3)C3=C2C(=O)CCC3)cc1CN1CCOCC1 (stereo not drawn) | ?
COc1cc(CNCc2ccccc2C)ccc1OCC(O)CN1CCC(O)CC1 (stereo not drawn) | 4.6%
CCCCc1cn(CC2CCN(C(=O)c3ccsc3)CC2)nn1 | -5.7%

# Compounds above that contain a CF3 group (3):
Compound | nsP2pro inh
O=C(CSc1nc2c([nH]c3ccccc32)c(=O)n1-c1cccc(C(F)(F)F)c1)N1CCCC1 | -20.3%
FC(F)(F)c1cc(C(F)(F)F)c2ccc3nc(-c4nnco4)cn3c2n1 | 0.5%
CC(C)Cn1cc(NC(=O)N2CCN(c3cccc(C(F)(F)F)c3)CC2)c2ccccc2c1=O | -20.2%
